Bioassay records deposited in PubChem by ICCB-Longwood Screening Facility, Harvard Medical School.
Sa growth 42C: S. aureus growth inhibition at 42 and 30 °C, primary screen, LtaS inhibitor project, RN4220, two temperatures; hit rate 0.53% among 170,000; AID 720641, 2013; OD600, 20 h, 42 °C; hits give low values; relative growth, % (test concentration not listed);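 active = growth at 42 °C up to 50% and 20 or more points under that at 30 °C, or under 10% at both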;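 note: 300 nL library stock went into each well; scaled to the means of positive and negative controls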
GIV Gai3 FP: inhibitors of GIV peptide binding to Galpha-i3, primary screen, biochemical, fluorescence polarization, FITC-GIV GBA peptide, rat Galphai3; percent of control (FP), % (concentration not given with the values); 90 min; hits give low values; scaled: aluminum fluoride 0%, vehicle 100%; AID 1224905, 2016; Guanine nucleotide-binding protein G(i) subunit alpha-3 (Rattus norvegicus), P08753; hit rate 0.42% among 210,000;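 active = replicate mean at 85% of control or lower, very high polarization wells dropped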;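 note: wells of about 15 µL received 100 nL stock; the first replicate is given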
Target sequence (P08753 whole entry, looked up): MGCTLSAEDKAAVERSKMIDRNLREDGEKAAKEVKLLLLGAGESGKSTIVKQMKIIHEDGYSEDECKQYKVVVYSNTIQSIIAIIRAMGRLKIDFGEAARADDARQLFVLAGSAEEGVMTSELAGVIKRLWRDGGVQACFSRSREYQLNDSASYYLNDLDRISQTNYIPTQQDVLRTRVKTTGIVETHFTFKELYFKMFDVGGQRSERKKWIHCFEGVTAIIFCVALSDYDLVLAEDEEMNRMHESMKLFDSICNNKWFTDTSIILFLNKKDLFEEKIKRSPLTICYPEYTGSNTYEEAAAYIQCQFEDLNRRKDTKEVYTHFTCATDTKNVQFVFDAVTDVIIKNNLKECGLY
HCMV UL50-53 inh: inhibitors of HCMV UL50-UL53 interaction, biochemical, HTRF. hit rate 0.15% among 190,000. HCMV UL50-UL53 nuclear egress complex (human cytomegalovirus). normalized percent inhibition. inhibition, % (concentration not given with the values);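 active = both replicates at 50% or more, plus weaker picks with an unusually low signal ratio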;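 note: stock transfer was 100 nL into about 20 µL; 0% = negative control wells and 100% = wells with untagged competitor protein; inactives centre near -12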
Sa growth 42C second temp: further read-out of Sa growth 42C, marked with its call; relative growth, %; measured here: growth at 30 °C;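 optical density after 20 h as mean of two plates; 100% = untreated growth and lower means inhibition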
The depositor's hits bear a star; · = not tested or not shown; & = joins results of further samples.

SMILES | Sa growth 42C | Sa growth 42C second temp | GIV Gai3 FP | HCMV UL50-53 inh
CN(C(=O)c1nn(C)c2c1CS(=O)(=O)c1ccccc1-2)c1cccc(Cl)c1 | 121 | 81 | 100 | -14
CC(C)(C)C(=O)Nc1ccccc1NC(=O)C(C)(C)C | 118 | 100 | 102 | -5
Cc1cc(C)cc(OCC(=O)Oc2cccc(-n3cnnn3)c2)c1 | · | · | 99 | -33
COc1ccccc1OCC(=O)Nc1nc(-c2ccc(Br)cc2)ns1 | 98 | 86 | 97 | -33
O=C(Nc1ccc2nc(SCC(=O)N3CCOCC3)sc2c1)c1cccc(Br)c1 | 95 | 59 | 102&103 | -24&3
O=C(OCC(=O)N1CCc2ccccc21)c1ccccc1 | 123 | 89 | 99 | 3
CCc1cccc(C)c1NC(=O)c1cc(S(=O)(=O)N2CCN(c3ccccc3)CC2)ccc1F | 128 | 91 | 102 | ·
CCCOc1ccc(Cc2c(O)nc(N)[nH]c2=O)cc1C | 108 | 92 | 113 | -24
Cc1ccc(NC(=O)CCc2nc(-c3ccccc3F)no2)c(C)c1 | 106 | 91 | 97 | -3
CN(Cc1ccccc1)C(C(=O)NC1CCCCC1)c1ccc(Cl)cc1 (stereo not given) | 93 | 92 | 101 | -2
COc1ccc(N2CC(c3nnc(NC(=O)c4ccccc4)s3)CC2=O)cc1 (stereo not given) | · | · | 105 | -16
O=C(c1ccc(CS(=O)c2ccccc2Cl)o1)N1CCc2ccccc21 (stereo not given) | 93 | 92 | 107 | -26
CC1=NN(c2nc3ccccc3[nH]2)C(=O)/C1=C/N(C)C | 117 | 101 | 96 | -13
COc1ccc(OC)c(S(=O)(=O)Nc2cc3c(C(C)=O)c(C)oc3c3ccccc23)c1 | 94 | 77 | 110 | 0
Cc1cccc(NC(=O)c2ccc(F)c(S(=O)(=O)N3CCC4(CC3)OCCO4)c2)c1 | 113 | 81 | 102 | ·
O=C(CCCn1c(=O)oc2ccccc21)NCCc1ccc2c(c1)OCCO2 | 85 | 90 | · | -13
Cc1cc(C)cc(NC(=O)CSc2nc3nccnc3c(=O)n2CCc2c[nH]c3ccccc23)c1 | 85 | 65 | 100 | -14
Cn1c(=O)sc2cc(S(=O)(=O)N3CCOCC3)ccc21 | · | · | 109 | -19
COCCCn1c(C)cc(C(=O)COC(=O)c2cccc(NS(C)(=O)=O)c2)c1C | 95 | 90 | · | -18
COc1cc(S(=O)(=O)NCc2ccc3c(c2)OCO3)c(C)cc1C | 93 | 67 | 95 | -22
CC(CCc1ccccc1)NC(=O)NC1CC(=O)N(c2ccccc2)C1 (stereo not given) | 83 | 76 | 100 | -37
Cc1nc2c3ccccc3n3c(CCCC(=O)NC4CCCCC4)nnc3n2n1 | 88 | 95 | 107 | ·
COc1cccc2sc(NC(=O)c3ccc(S(=O)(=O)N(C)C)cc3)nc12 | 116 | 92 | 102 | ·
CC(NC(=O)c1ccc2c(c1)CCN2S(=O)(=O)c1ccc(Cl)cc1)c1ccccc1 (stereo not given) | 108 | 86 | 109 | -5
CN(Cc1cccs1)S(=O)(=O)c1cn(C)c(=O)n(C)c1=O | 76 | 94 | · | -32
Cc1csc2nc(CSc3nnc4n3CCCCC4)cc(=O)n12 | 93 | 93 | · | -16
CC1C(=O)C(C)C(c2ccc3c(c2)OCO3)NC1c1ccc2c(c1)OCO2 (stereo not given) | 114 | 79 | 96 | -15
Cc1cccc(N(CC(=O)NCCSc2ccc(Cl)cc2)S(=O)(=O)c2ccccc2)c1C | 90 | 86 | 104 | -29
O=C1CCC(=O)N1Oc1ncc(C(F)(F)F)cc1Cl | · | · | 99 | -14
O=C(CSc1oc(-c2ccco2)nc1S(=O)(=O)c1ccc(Cl)cc1)c1ccccc1 | 104 | 105 | 99 | 18
OCCn1c(-c2ccc(F)cc2)csc1=Nc1cccc(Cl)c1 | 70 | 14 | 107 | -27
O=C(O)c1cccc(Cl)n1 | 105 | 90 | · | -15
COC(=O)C(C)Sc1cc(C)c2ccccc2n1 (stereo not given) | 95 | 86 | 105 | -30
Cc1ccc(NS(=O)(=O)c2ccc(NC(=O)CN3C(=O)c4cccc5cccc3c45)cc2)cc1 | 127 | 78 | 99 | ·
CCCCc1cc(=O)oc2c(CN3CCCC3)c(O)c(Cl)cc12 | 104 | 99 | 108 | -38
CN(C)c1ccc(C(O)c2nnc(-c3ccccc3)o2)cc1 (stereo not given) | 103 | 82 | · | -11
CCOC(=O)c1c(NC(=O)c2csnn2)sc2c1CCC2 | · | · | 97 | -9
CCOC(=O)c1cccc(NS(=O)(=O)c2ccc(-c3coc(C)n3)cc2)c1 | 91 | 96 | 109 | ·
O=C(NC(C(F)(F)F)C(F)(F)F)OC1CCCC1 | 93 | 83 | 96 | ·
CCOC(=O)c1oc2ccccc2c1NC(=O)c1ccc(S(=O)(=O)N(C)C)cc1 | 97 | 92 | 100 | ·
Clc1ccc(/C=N\n2cnnc2)c(Cl)c1 | 97 | 76 | · | -18
CCN=C(Nc1ccc(Cl)cc1)c1cccnc1 | · | · | 102 | 8
O=C(COc1ccccc1F)Nc1ncnc2nc[nH]c12 | 93 | 91 | · | -4
Cc1coc(NC(=O)CSc2nc(-c3ccc(Cl)cc3)cc(C(F)(F)F)c2C#N)n1 | 98 | 92 | 108 | -13
NC(=O)/C=C/c1cccc(C(F)(F)F)c1 | 134 | 86 | · | -29
CC(C)(C)OC(=O)N1CCC(c2c(C(=O)Nc3ccc4c(c3)OCCO4)cnn2-c2ccc(Cl)cc2)CC1 | 90 | 97 | 111 | ·
O=C(NC1CCCC1)C1CCC(Cn2c(=O)c3ccccc3n(Cc3cc(=O)n4ccccc4n3)c2=O)CC1 (stereo not given) | 110 | 97 | 108 | 3
COCCn1c(=NC(=O)c2ccc3c(c2)OCCO3)sc2cc(NC(C)=O)ccc21 | 99 | 86 | 80* | ·
Cc1cn2c(nc1=O)O[C@H]1C[C@H]2O[C@@H]1COC(=O)c1ccccc1 | 94 | 89 | 107 | -14
CC(C)Cn1cnc2nc(CSc3ccccc3NC(=O)Nc3ccc(Cl)cc3)cc(=O)n21 | · | · | 103 | -2

The listing continues.
SMILES | Sa growth 42C | Sa growth 42C second temp | GIV Gai3 FP | HCMV UL50-53 inh
COCc1cc(=O)[nH]c(NC(C)=O)n1 | 104 | 73 | 94 | -12
Cc1ccc(CNC(=O)NCc2cccc(CNC(=O)NCc3ccc(C)n3C)c2)n1C | 97 | 82 | · | 3
COc1cccc(C(=O)Nc2ccccc2-c2nnc(-c3ccc(C(C)(C)C)cc3)o2)c1 | 115 | 88 | 103 | -16
O=C(NCCCN1CCOCC1)c1ccccc1 | 98 | 89 | · | -6
COc1cc(C2C(C(=O)OCCOc3ccccc3)=C(C)NC3=C2C(=O)CC(C)(C)C3)cc(OC)c1O (stereo not given) | · | · | 102 | -29
Clc1ccc2nnc(-c3ccccc3)n2n1 | · | · | 108 | -114
COc1cc(N)c(Cc2nccc3cc(OC)c(OC)cc23)cc1OC | 115 | 80 | 134 | -20
O=C(NC(=S)Nc1cccc2c(O)cccc12)C1CC1 | 52 | 35 | · | -29
CCn1c2ccccc2c2cc(NC(=O)COc3ccc(C)cc3C)ccc21 | 90 | 81 | 103 | -35
CN(C)c1ccc(/C=N/N2C(=O)c3ccccc3C2=O)cc1 | 91 | 87 | 101 | -29
Cc1ccnc(SCc2cc(=O)c(OC(=O)c3ccco3)co2)n1 | 94 | 83 | 104 | -15
Cc1nc(NCc2ccccn2)c2ccccc2n1 | 94 | 78 | · | -28
CC(CN=CC1=C(O)CC(C)(C)CC1=O)N=CC1=C(O)CC(C)(C)CC1=O (stereo not given) | 109 | 77 | 107 | -6
C=CCN(c1ccccc1)c1nc(C(=O)OCC)nc2ccccc12 | 80 | 67 | 101 | -32
CC1CCC(NC(=O)C2CCCN(C(=O)c3cc(-c4ccncc4)n[nH]3)C2)CC1 (stereo not given) | · | · | 99 | -14
CCn1c(CN(c2ccc(F)cc2)S(C)(=O)=O)nnc1SCC(=O)c1cn(C)c2ccccc12 | · | · | 105 | -27
CCOc1cc(C2C3=C(CC(C)(C)CC3=O)Nc3onc(C)c32)ccc1O (stereo not given) | · | · | 108 | -22
O=c1[nH]c2ccc(NCc3ccc(OCc4ccc(Cl)cc4)cc3)cc2[nH]1 | 110 | 94 | 102 | -8
O=C(O)CCC(=O)Nc1ccccc1C(=O)NC1CC1 | 104 | 83 | · | -29
CCOc1cc(S(=O)(=O)NCCc2ccc(OC)c(OC)c2)c(OCC)cc1-n1cnnn1 | 71 | 101 | 102 | 4
O=C1c2ccccc2CN1CCSC(=S)N1CCCC1 | 113 | 97 | 97 | -11
CC(=O)c1c(CC(=O)O)[nH]n(-c2nc3ccccc3s2)c1=O | 113 | 84 | 104 | 41
O=C(Nc1ccc(-c2nc3ccccc3o2)cc1)c1ccc(Oc2ccccc2)cc1 | 109 | 88 | 105 | ·
COc1ccc(-c2nc(CNS(=O)(=O)c3ccc(F)cc3)cs2)cc1 | 105 | 98 | 105 | 5
COc1ccccc1C(=O)N=C1NC(=O)CC2C(=O)NCCN12 (stereo not given) | 100 | 85 | 103 | 1
CCCc1[nH]n(-c2ccc(F)cc2)c(=O)c1C(C)=Nc1ccc(S(N)(=O)=O)cc1 | 117 | 90 | 103 | -2
COc1cccc(N2CCN(S(=O)(=O)c3ccc(CN4C(=O)c5cccnc5C4=O)cc3)CC2)c1 | · | · | 104 | -11
Cc1cccc(CN2C(=O)/C(=C\c3ccc(C(=O)NCc4cccnc4)cc3)Sc3ccccc32)c1 | 108 | 97 | 104 | ·
Cc1ccc(C(=O)COC(=O)c2ccc(-n3cccn3)cc2)s1 | 82 | 90 | · | -32
CCCC12CN3CC(C)(CN(C1)C3c1ccc(CC)cc1)C2=O (stereo not given) | 102 | 93 | 101 | -5
CCCN(Cc1nnc(-c2ccco2)o1)C(=O)CSc1nnc(-c2ccc(Cl)cc2)o1 | 85 | 91 | · | -11
CC(=O)OCC(=O)c1ccc2c(c1)CCN2C(C)=O | 83 | 65 | 98 | ·
Cc1cc2ncn(C(=O)N3CCCCC3)c2cc1C | 107 | 87 | 108 | -8
CC1CN(C(=O)Nc2ccc(C(=O)NCCc3ccccc3)cc2)c2ccccc2S1 (stereo not given) | 104 | 82 | 109 | -1
CNC(=O)Sc1c(-c2ccc(Cl)cc2)nn(C(=O)NC)c1SC | 79 | 95 | 106 | 9
O=C(Cn1c2c(c(=O)n3ncnc13)CCC2)N/N=C/c1cccnc1 | 103 | 91 | 102 | -17
CCOc1ccc(C2C(=O)N(C3CCCCCC3)CC(=O)N2CCc2ccc(Cl)cc2)cc1OC (stereo not given) | 113 | 89 | 107 | ·
C=CCNC(=O)c1cc(-c2ccc(C)c(C)c2)nc2ccccc12 | 117 | 81 | 99 | ·
Cc1ccc2c(c1)/C(=C/c1ccncc1)c1cc3ccccc3nc1-2 | 80 | 74 | · | -13
Cc1cc(C)n2c(SC(C)C(=O)NC3(C#N)CCCCC3)nnc2n1 (stereo not given) | 95 | 96 | · | -8

Taken from the listing (five entries):
SMILES | Sa growth 42C | Sa growth 42C second temp | GIV Gai3 FP | HCMV UL50-53 inh
Cc1cc2ncn(C(=O)N3CCCCC3)c2cc1C | 107 | 87 | 108 | -8
CC1CN(C(=O)Nc2ccc(C(=O)NCCc3ccccc3)cc2)c2ccccc2S1 (stereo not given) | 104 | 82 | 109 | -1
CNC(=O)Sc1c(-c2ccc(Cl)cc2)nn(C(=O)NC)c1SC | 79 | 95 | 106 | 9
O=C(Cn1c2c(c(=O)n3ncnc13)CCC2)N/N=C/c1cccnc1 | 103 | 91 | 102 | -17
CCOc1ccc(C2C(=O)N(C3CCCCCC3)CC(=O)N2CCc2ccc(Cl)cc2)cc1OC (stereo not given) | 113 | 89 | 107 | ·

(more compounds)
SMILES | Sa growth 42C | Sa growth 42C second temp | GIV Gai3 FP | HCMV UL50-53 inh
COC(=O)C(C)Sc1nc2cc(Cl)ccc2s1 (stereo not given) | 130 | 92 | · | -10
CC1CC(C)CN(S(=O)(=O)c2ccc(NC(=O)C(C)N3C(=O)C4CC=CCC4C3=O)cc2)C1 (stereo not given) | 112 | 84 | · | -15
Cn1nc(C2CC2)cc1NC(=O)Nc1ccc(OC(F)(F)F)cc1 | 90 | 82 | 105 | -18
COC(=O)C1=C(N)Oc2c(oc(CO)cc2=O)C1c1cccc(OC)c1 (stereo not given) | 100 | 88 | 102 | -17
O=C(CSc1n[nH]c(-c2ccccc2Cl)n1)NC1CCCCC1 | 115 | 90 | 103 | -4
Cc1c(C#N)sc2ccccc12 | 106 | 104 | 103 | -6

Entries of single compounds from above. Order of screens: Sa growth 42C, Sa growth 42C second temp, GIV Gai3 FP, HCMV UL50-53 inh
Clc1ccc2nnc(-c3ccccc3)n2n1 reads ·, ·, 108, -114
COc1ccccc1C(=O)N=C1NC(=O)CC2C(=O)NCCN12 (stereo not given) reads 100, 85, 103, 1
CN(C)c1ccc(C(O)c2nnc(-c3ccccc3)o2)cc1 (stereo not given) reads 103, 82, ·, -11
Cc1ccc(C(=O)COC(=O)c2ccc(-n3cccn3)cc2)s1 reads 82, 90, ·, -32
O=C(NCCCN1CCOCC1)c1ccccc1 reads 98, 89, ·, -6
